Bfl-1 A1 inh – inhibitors of the anti-apoptotic protein A1, read as caspase activation | MEF A1-2A-BIM cells, Caspase-Glo 3/7 luminescence, 3 h; percent of clofoctol response, vehicle zero | 0.066% of 330,000 active | caspase activation, % (no concentration beside the values);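 active = over half of replicate activation scores above 10%, or exactly half above 10 with the replicate mean above 10; inconclusive = replicate mean below 10 yet half the replicates above 10; inactive = over half of replicates below 10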;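 also: wells of about 30 µL received 50 nL stock; many hits fall short of the cut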
LANA-H2B inh – blocks KSHV LANA binding to histone H2A/H2B | Q9QR71 | cell-free LANA-H2A/H2B peptide, fluorescence polarization | inhibition, % (test concentration not listed) | 0.6% of 320,000 active | AID 2629; in the data active = inhibition mostly above about 10%, no sharp cut-off; inactive = mostly below about 6.7%;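 also: stock transfer was 7.5 nL into about 10 µL; 0% = median of vehicle wells and 100% = median of positive control wells; one replicate is shown; the record names a cut of 25% in any replicate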
Vif A3G – HIV-1 Vif–A3G interaction blockers – biochemical, TR-FRET, GST-Vif 1-94, biotin-A3G peptide, dose response retest, primary screen (AID 1117319); TR-FRET GST-Vif / biotin-A3G peptide binding; higher % means a stronger effect; test concentration not given here; strong numbers were not always called active; inhibition, %; hits with a dose series show IC50 in µM; 0.57% of 260,000 active;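 active = above the screen mean plus three standard deviations and confirmed in dose response; inconclusive = results disagree or hit not tested in dose response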;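 also: Vif residues 1-94 fused to GST binding biotinylated APOBEC3G peptide 110-148; 0% = full assay without inhibitor and 100% = GST in place of GST-Vif; retest series ran down from 100 µM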
Ecoli growth – E. coli growth inhibition. OD600 absorbance (no concentration beside the values). 0.21% of 330,000 active. AID 1053175. Escherichia coli growth, OD600, 23 h; stronger effect = lower value;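 active = OD600 absorbance below the run mean of sample wells minus 3.6 SD, in any replicate, cut at about 0.56 in these data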;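 also: stock transfer was 300 nL into about 60 µL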
UCH37 inh – human UCH37 deubiquitinating enzyme inhibition | Q9Y5K5 | 0.33% of 330,000 active | purified proteasome/UCH37, Ub-AMC cleavage fluorescence | inhibition, % (no concentration beside the values);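 active = mean of two replicates above 20%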;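 also: 0% = compound-free wells with enzyme and 100% = wells lacking proteasome; stock transfer was 100 nL into about 20 µL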
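Material: human UCH37 enzyme supplied as purified proteasome complex. Measure: % inhibition of Ub-AMC cleavage fluorescence. Medium: pH 7.4 Tris-HCl (50 mM) with ovalbumin, ATP-MgCl2, DTT. Times: 30 min preincubation with enzyme, 25 min cleavage at room temperature. Detection: AMC fluorescence intensity at 355/460 nm.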
Beta2AR agonist – activates human beta-2 adrenergic receptor causing internalization; P07550; Am2.2-beta2AR cells, FAP receptor internalization, flow cytometry; reference of the scale not given here; response, % (concentration not given with the values); 0.43% of 340,000 active;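 active = response above a set limit, near 3 SD of response in nonfluorescent compounds, cut at about 42% in these data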;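 also: stock transfer was 100 nL into about 11 µL; a reference agonist was the positive control; negative values mostly stem from fluorescent compounds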
Target sequence (P07550 whole entry, looked up): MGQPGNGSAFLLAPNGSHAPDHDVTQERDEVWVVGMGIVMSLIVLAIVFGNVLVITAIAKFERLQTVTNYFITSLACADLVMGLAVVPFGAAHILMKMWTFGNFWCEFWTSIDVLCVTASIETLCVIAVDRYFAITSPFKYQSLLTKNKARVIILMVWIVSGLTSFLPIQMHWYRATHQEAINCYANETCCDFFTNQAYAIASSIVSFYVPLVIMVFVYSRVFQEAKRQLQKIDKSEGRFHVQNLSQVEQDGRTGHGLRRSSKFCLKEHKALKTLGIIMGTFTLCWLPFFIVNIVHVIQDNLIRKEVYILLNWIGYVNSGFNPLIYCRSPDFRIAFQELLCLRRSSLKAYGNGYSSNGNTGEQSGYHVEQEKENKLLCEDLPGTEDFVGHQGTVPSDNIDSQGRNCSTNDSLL
HNF4A DNA FP – change in binding of human HNF4 alpha to DNA | P41235 | HNF4a-FITC DNA binding, fluorescence polarization, 1 h | activity change, % at 10 µM | 0.3% of 360,000 active | AID 1224865; in the data active = activity change above about 30%, passing the limit was not always enough;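 also: controls were the assay level and a saturating level of protein; the project sought stronger binding though the title names inhibitors; some compounds called inactive have numbers as strong as hits; positive values seem to mean higher polarization but the record does not say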
Target sequence (P41235 whole entry, looked up): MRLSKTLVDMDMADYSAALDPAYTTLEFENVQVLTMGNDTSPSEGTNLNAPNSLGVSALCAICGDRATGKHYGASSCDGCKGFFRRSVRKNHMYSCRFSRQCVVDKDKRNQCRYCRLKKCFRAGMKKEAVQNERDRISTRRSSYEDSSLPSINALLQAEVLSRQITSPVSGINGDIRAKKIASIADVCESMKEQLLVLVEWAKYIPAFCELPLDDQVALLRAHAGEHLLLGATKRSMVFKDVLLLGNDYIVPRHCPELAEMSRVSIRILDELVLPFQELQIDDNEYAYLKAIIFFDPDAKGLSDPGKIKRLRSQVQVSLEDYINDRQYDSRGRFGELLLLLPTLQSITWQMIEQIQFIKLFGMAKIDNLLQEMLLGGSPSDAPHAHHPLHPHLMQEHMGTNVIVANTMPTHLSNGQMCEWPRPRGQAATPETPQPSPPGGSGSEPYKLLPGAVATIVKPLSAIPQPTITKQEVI
* = called active by the depositor; ? = inconclusive; . = not tested or not shown; + = active, no number.

SMILES | Bfl-1 A1 inh | LANA-H2B inh | Vif A3G | Ecoli growth | UCH37 inh | Beta2AR agonist | HNF4A DNA FP
COc1ccc(C2C(C#N)=C(C)NC3=C2C(=O)CC(C)(C)C3)cc1 (stereo unspecified) | -0.5 | -6.6 | 3% | 0.7 | -340 | 0 | 1.4
COc1ccc(C(=O)N2CCC(n3nccc3NC(=O)C3CC3)CC2)cc1F | 0.9 | -7.2 | . | 0.72 | 3.3 | -8 | 1.1
Cc1ccc(-c2nc(CSCC(=O)N3CCCC3)c(C)o2)cc1 | 0.0 | -0.8 | 26% | 0.72 | 3.7 | -11 | -0.6
COC(C[C@H]1O[C@@H]1[C@@H](O)[C@H](C)OCc1ccccc1)OC | . | . | 1% | . | 2.5 | -2 | -0.9
Cc1c(C(=O)OCC(=O)NC2CC2)oc2ccc(Br)cc12 | . | . | -12% | 0.69 | 0.0 | -1 | -4.1
CCC(c1nnnn1Cc1ccc(OC)cc1)N1CCN(C(=O)c2ccco2)CC1 (stereo unspecified) | -1.1 | -13 | . | 0.66 | -0.4 | -17 | 1.4
COC(=O)[C@@H]1C[C@@]2(O)[C@@H](O)[C@@H](O)[C@@H](O)C[C@H]2N1Cc1ccc(C(F)(F)F)cc1 | 0.1 | -3.8 | . | . | 0.2 | -5 | -2.4
NC(=O)c1ccsc1NC(=O)COC(=O)c1ccc(Cl)c(N)c1 | -0.2 | 1.1 | 2% | 0.64 | -2.7 | 2 | 2.9
COc1cccc(OC)c1NC(=O)C1CCCN1C(=O)NCc1ccccc1 (stereo unspecified) | 0.1 | -1.9 | 10% | 0.68 | 0.2 | -1 | -3.0
O=C(O)c1ccc(-c2nnn(Cc3ccccc3F)n2)cc1 | 0.0 | 3.3 | 8% | 0.66 | 1.3 | 5 | -1.1
COc1ccc2c(c1)C(=O)N(c1ccc(C)cc1C)C(=O)C2 | -1.3 | 0.7 | -4% | 0.69 | -6.1 | -8 | -2.0
CCC(NS(=O)(=O)c1ccc(C)cc1)C(=O)N1CCN(c2ccccn2)CC1 (stereo unspecified) | 0.4 | -0.3 | -5% | 0.74 | 2.0 | -1 | 5.1
CCOC(=O)c1c(C)nc2sc(C(N)=O)c(N)c2c1-c1ccc(OC)cc1 | -0.4 | -6.0 | -8% | 0.8 | -3.1 | -6 | 1.1
CN(C)S(=O)(=O)c1cccc2nsnc12 | 0.1 | 2.5 | 2% | 0.65 | 2.1 | 10 | -2.4
O=C1Nc2ccc(F)cc2C12Nc1ccccc1-c1nnc(SCc3ccccc3F)nc1O2 (stereo unspecified) | -0.2 | 3.8 | 6% | 0.67 | 2.7 | 5 | -5.6
CCOc1ccc(-c2ccc(/C=C3/C(=N)N4C=CSC4=NC3=O)o2)c([N+](=O)[O-])c1 | -0.3 | 1.8 | . | 0.69 | 12 | 1 | 10
Cc1ccc(C(C)C)c(OCC(=O)Nc2ccccc2N2CCN(C)CC2)c1 | -0.5 | -2.1 | -5% | 0.69 | 0.8 | 3 | 3.5
COc1ccc(S(=O)(=O)N2CCCCCC2)cc1NC(=O)Cc1ccccc1F | -0.1 | 4.6 | 7% | 0.69 | 4.2 | -1 | 1.1
Cc1ccc(S(=O)(=O)N2[C@@H](c3ccc(Cl)cc3)C(C(=O)O)=C[C@H]2C(C)(C)C)cc1 | -0.3 | + | . | 0.67 | -0.9 | 2 | -0.7
S=c1[nH]nc(CSCc2ccccc2Cl)n1-c1ccccc1 | -0.2 | -3.9 | 21% | 0.68 | 1.5 | 0 | 2.8

An excerpt from above in order of the Vif A3G value, descending:
structure	LANA-H2B inh	Vif A3G	UCH37 inh	Beta2AR agonist	HNF4A DNA FP
S=c1[nH]nc(CSCc2ccccc2Cl)n1-c1ccccc1	-3.9	21%	1.5	0	2.8
COc1ccc(S(=O)(=O)N2CCCCCC2)cc1NC(=O)Cc1ccccc1F	4.6	7%	4.2	-1	1.1
CN(C)S(=O)(=O)c1cccc2nsnc12	2.5	2%	2.1	10	-2.4
Cc1ccc(C(C)C)c(OCC(=O)Nc2ccccc2N2CCN(C)CC2)c1	-2.1	-5%	0.8	3	3.5

Next part:
SMILES | Bfl-1 A1 inh | LANA-H2B inh | Vif A3G | Ecoli growth | UCH37 inh | Beta2AR agonist | HNF4A DNA FP
COc1ccccc1CNC(=O)COC(=O)c1ccc2c(=O)n3c(nc2c1)CCCCC3 | -0.1 | 0.5 | -19% | 0.67 | -6.5 | 2 | 0.6
Clc1ccccc1Nc1nc2ccccc2o1 | -7.5 | . | -6% | 0.6 | 1.5 | 3 | 1.2
CCSc1nc(CC)c2c(c1C#N)CCCC2 | 1.1 | 0.5 | 0% | 0.69 | 3.4 | 4 | -0.9
O=C(NC1CCCCC1)C12CC3CC(C1)CC(n1cncn1)(C3)C2 | 0.7 | -5.7 | 2% | 0.77 | -0.2 | -1 | 0.5
Cc1ccc(CNC(=O)CN2C(=O)CSc3ccc(S(=O)(=O)N4CCC(C)CC4)cc32)cc1 | 2.0 | -1.0 | . | 0.66 | 3.7 | 0 | 0.1
COc1ccccc1C(NC(C)=O)c1c(O)ccc2ccc(O)cc12 (stereo unspecified) | 0.3 | -7.0 | . | 0.61 | -3.7 | 7 | 0.6
Cc1nn(-c2ccccc2)c(N2CCCC2)c1C=O | -0.6 | 3.7 | -8% | 0.66 | 2.8 | 4 | 3.6
CCOC(=O)CCn1cnc2ccc([N+](=O)[O-])cc2c1=O | 0.1 | -4.4 | 10% | 0.69 | 4.6 | -2 | -0.8
CC(NC(=O)CNC(=O)C(Cc1ccccc1)NC(=O)OCc1ccccc1)C(N)=O (stereo unspecified) | 0.2 | -2.3 | 0% | 0.68 | 2.4 | 1 | -0.2
CC(C)CCNC(=O)CC1Nc2c3ccccc3nc(=S)n2C1=O (stereo unspecified) | 0.4 | 3.2 | 21% | 0.7 | 2.4 | 13 | -0.8
Cc1cc(C)cc(NC(=O)c2ccc(N3C(=O)C4CCCCC4C3=O)cc2)c1 (stereo unspecified) | -0.3 | 9.6 | . | 0.69 | 3.2 | 16 | -0.4
CCCCSc1nc(NCc2ccco2)c2c3c(sc2n1)COC(C)(C)C3 | -0.5 | 3.1 | 7% | 0.68 | -7.2 | 2 | 4.3
CC(C)N1CCN(C(=O)c2ccc(NC(=O)c3ccc(Br)o3)cc2)CC1 | -0.3 | -5.4 | . | 0.71 | -0.4 | -2 | 1.5
CCCCN(C)CCOc1ccccc1OCC | 0.9 | 6.3 | 8% | 0.065* | -0.3 | -1 | 1.6
Cn1c(=O)c2c(nc(CN3CCc4ccccc4C3)n2Cc2ccc(Cl)cc2)n(C)c1=O | 0.5 | 0.1 | 4% | 0.66 | 0.6 | 6 | 2.4
CC1CCN(S(=O)(=O)c2ccc(C(=O)N3CCCC3C(=O)O)cc2)CC1 (stereo unspecified) | 0.5 | . | 16% | 0.64 | -0.6 | 2 | 1.0
Cc1ccc(S(=O)(=O)N2[C@@H](c3ccc(Cl)cc3)C(C(=O)O)=CC[C@H]2c2ccc3c(c2)OCO3)cc1 | 0.3 | 1.0 | . | . | 0.1 | -1 | 0.2
CCc1ccc(NC(=O)CSc2nnc(CNC(=O)c3ccc(OC)cc3)o2)cc1 | -0.2 | 1.4 | . | 0.67 | 2.9 | -2 | 2.6
COC(=O)c1nn(-c2ccc(-c3ccccc3)cc2)cc1O | -8.1 | -1.9 | 16% | 0.72 | -10.0 | 1 | -4.4
O=C(N/N=C/c1ccc(-c2cccc([N+](=O)[O-])c2)o1)c1cccs1 | 0.3 | 3.2 | 5% | . | . | -15 | 0.8

Single records, from the list above. Order of screens: Bfl-1 A1 inh, LANA-H2B inh, Vif A3G, Ecoli growth, UCH37 inh, Beta2AR agonist, HNF4A DNA FP
`COC(=O)c1nn(-c2ccc(-c3ccccc3)cc2)cc1O` in the list: -8.1, -1.9, 16%, 0.72, -10.0, 1, -4.4
`CCSc1nc(CC)c2c(c1C#N)CCCC2` in the list: 1.1, 0.5, 0%, 0.69, 3.4, 4, -0.9

(next part)
SMILES | Bfl-1 A1 inh | LANA-H2B inh | Vif A3G | Ecoli growth | UCH37 inh | Beta2AR agonist | HNF4A DNA FP
CCc1ccc(NC(=O)Cn2c(=O)oc3cc(S(=O)(=O)N4CCOCC4)ccc32)cc1 | 0.2 | -6.1 | 3% | 0.74 | 5.9 | -6 | -0.5
CCN1CCN(CC(O)COC(c2ccccc2)c2ccccc2C)CC1 (stereo unspecified) | 0.7 | -0.6 | 3% | 0.67 | 1.5 | -2 | -1.4
COc1ccc(-c2nnn(CC(=O)N(CC(=O)NC3CCCC3)c3ccccc3)n2)cc1OC | 0.9 | -0.7 | -8% | 0.7 | -0.6 | 6 | -5.9
O=C(COC(=O)COc1ccccc1)Nc1ccc(S(=O)(=O)N2CCOCC2)cc1 | 0.3 | -0.6 | 1% | 0.71 | 0.2 | 4 | 0.9
O=C1N/C(=C/c2ccc(N3CCOCC3)o2)C(=O)N1c1ccccc1 | 0.9 | 5.6 | 29% | 0.68 | 10 | 4 | 112
COCC(=O)NC1CC(C)(C)Cc2c1cnn2-c1ccc(F)cc1 (stereo unspecified) | -0.1 | 4.0 | . | 0.67 | 3.7 | 21 | 3.9
O=C1OCC2=C1C(c1ccc(F)cc1)c1cc3c(cc1N2)OCO3 (stereo unspecified) | . | . | -6% | 0.71 | -184 | 20 | 0.8
COC(=O)c1cc(C#N)c(N(C)Cc2ccccc2)nc1C | 0.1 | 1.0 | 21% | 0.74 | -2.7 | 8 | 2.1
CC(C)NC(=O)NC(=O)CSc1nnc(C(F)(F)F)n1C | -0.8 | 10 | 3% | 0.68 | -0.1 | -5 | -0.8
CC(=O)c1c(C)[nH]c(C(=O)Nc2ccc(F)cc2F)c1C | -2.4 | 5.7 | . | 0.7 | -0.6 | 13 | -3.5
O=C(COc1cccc(Oc2ccccc2)c1)Nc1ccc(SC(F)F)cc1 | 1.7 | 4.8 | -1% | 0.69 | -0.6 | -15 | -1.1
COc1cc(OC)cc(C(=O)NCC(=O)OCC(=O)Nc2ccc3c(c2)OCO3)c1 | 1.3 | -2.4 | 9% | 0.7 | 4.4 | 0 | 6.4
O=C1NN(c2ccccc2)C(=O)/C1=C/c1ccc(-c2cccc(C(=O)O)c2)o1 | -0.9 | -3.9 | 11% | . | . | -10 | -4.8
Cc1cc(C)nc(N2CCCC(C(=O)NCc3cccs3)C2)n1 (stereo unspecified) | 0.0 | -2.0 | 3% | 0.71 | -2.5 | -2 | -0.5
Cc1ccc([N+](=O)[O-])cc1-c1ccc2cccc(C)c2n1 | -0.3 | -1.4 | 0% | 0.7 | 0.3 | -6 | 1.7
C=CCc1cccc2cc(C(=O)NCCOC)c(=O)oc12 | 0.2 | 1.9 | -1% | 0.71 | -21 | -2 | 1.3
CCn1ncc(Cl)c1C(=O)NC(C)c1ccccc1 (stereo unspecified) | 0.3 | 0.2 | 6% | 0.65 | 1.5 | -1 | -3.5
O=C(CSc1ncccn1)n1c2c(c3ccccc31)CCCC2 | 0.8 | 1.5 | -1% | 0.76 | 1.9 | -12 | 1.3
CC(Oc1ccccc1)C(=O)N1CCN=C1SCc1ccccc1 (stereo unspecified) | ? | 0.6 | 2% | 0.72 | 5.6 | 0 | -1.1
CCc1cc(C(=O)c2ccc(OC)cc2)c(NC(=O)CN2CCN(C)CC2)s1 | 0.7 | -4.7 | . | 0.6 | 5.9 | 15 | -0.8
COc1cccc(CNC(=O)c2cccnc2Sc2ccc(C)cc2C)c1 | 0.1 | -3.3 | . | 0.68 | 1.4 | -6 | -1.0
CS(=O)(=O)c1ccccc1-c1nnc(NC(=O)c2ccc3ncsc3c2)o1 | -0.4 | -5.8 | -6% | 0.69 | 7.6 | 13 | -3.0
Cc1cccc(NC(=O)c2cccnc2)c1C | 1.1 | 2.4 | . | 0.62 | 1.8 | -1 | -1.0

Compound activity deposited in PubChem by several laboratories.
